Mtb hypoxia rep: reduces hypoxia-regulated biosensor signal in M. tuberculosis | M. tuberculosis hypoxia-regulated fluorescent reporter, fluorescence | fluorescence inhibition, % (no concentration beside the values) | 0.1% of 300,000 active | AID 1159583;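 active = 35 to 45% if threefold the growth effect, above 45% if 1.5-fold the growth effect; inactive = the rest, general growth blockers included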;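 also: wells of about 50 µL received 100 nL stock; 0% = vehicle wells and 100% = reference inhibitor wells; whole bacteria with a GFP reporter of the hypoxia response; strong numbers were not always called active; many hits fall short of the cut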
ugtP null kill: compounds lethal to S. aureus RN4220 ugtP deletion mutant | AID 1259309 | growth inhibition, % (concentration not given with the values) | 0.54% of 330,000 active | OD600 growth, 16 h; some inactives read as strong as hits;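 active = z-score under -3 and OD600 up to 0.15 on both plates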;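 also: plate controls were untreated wells for no effect and antibiotic for full effect; wells of about 80 µL received 100 nL stock; the first replicate is given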
RN4220 kill: S. aureus RN4220 growth inhibition | OD600, 16 h | inhibition, % (test concentration not listed) | 0.33% of 330,000 active | AID 1259311;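 active = z-score of -3 or lower and OD600 up to 0.18 on both plates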;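 also: plate controls were untreated cells for no effect and reference antibiotic for full effect; stock transfer was 100 nL into about 80 µL; one replicate is shown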
Autofluor counter: counter-screen for toxin protease inhibitors: compound fluorescence; compound autofluorescence counterscreen, microsphere flow cytometry; active compounds read high; fluorescence intensity (test concentration not listed); 3.1% of 360,000 active; AID 624483;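 active = at least 3 SD above the mean of all compounds, about 16000 in these data; inconclusive = too few beads counted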;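 also: 100 nL of 1 mM stock went into each well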
PrP UTR inh: suppresses PrP 5' UTR mRNA reporter expression; cell-based PrP 5' UTR mRNA reporter, plate reader; 0.35% of 340,000 active; inhibition, % (no concentration beside the values); AID 488862;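 active = every replicate at 50% or more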;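 also: 0 = median of the neutral control wells; tested in H4 reporter cells; numbers are from one replicate; inactives centre near -14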
BJeLR viability: kills HRASV12-expressing BJeLR cells | AID 1554 | 0.17% of 300,000 active | BJeLR (HRASV12) viability, CellTiter-Glo ATP luminescence, 48 h; reference of the scale not given here | inhibition, % (no concentration beside the values);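 active = replicate mean above 50%; inconclusive = above 50% but judged a plate artefact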;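 also: 50 nL library stock added to about 25 µL; numbers are from one replicate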
Mtb hypoxia rep growth: recorded beside Mtb hypoxia rep, whose call it bears; growth inhibition, %; measured here: M. tuberculosis growth (absorbance);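 0% = vehicle and 100% = reference antibiotic; read after six days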
* hit, by the source's call; u = inconclusive; x = no result given. The order is random, and some 4.1% of all compounds hit somewhere here.

SMILES	Mtb hypoxia rep	Mtb hypoxia rep growth	ugtP null kill	RN4220 kill	Autofluor counter	PrP UTR inh	BJeLR viability
Cn1c(=O)c2c(ncn2CC(=O)NN=C/C=C\c2ccccc2[N+](=O)[O-])n(C)c1=O	1	1	2	2.5	x	x	x
C=CCN(CC=C)CCOc1ccc(OC(C)C)cc1	3	1	9	0.8	4137	-13	-2
Cc1ccc(N2CCN(S(=O)(=O)N(C)C)CC2)cc1Cl	x	x	6	1.1	3460	6	8
CNS(=O)(=O)c1ccc(C)c(S(=O)(=O)NC)c1	-6	-4	-3	1.3	1966	3	7
Cc1n[nH]c(C)c1S(=O)(=O)N(C)Cc1ccco1	1	2	5	4.4	5904	-21	x
COc1cc(S(=O)(=O)N2CCOCC2)cc(C(=O)c2nccn2C)c1OC	-3	0	5	4.9	10692	-10	-9
CCCc1ccc(OCC(=O)NNC(=O)c2cccnc2)cc1	5	-3	5	3.5	2403	-8	1
CCOC(=O)N1CCN(C(=O)CCCn2nnnc2CN2CCC(C)CC2)CC1	-6	5	-1	0.8	5625	-14	10
Cc1c(C#N)c2ccccc2n1CCOc1ccccc1F	16	2	-13	-3.7	8101	-12	-5
Cc1ccc(C2=NN(CCC(=O)NC3CCCC3)C(=O)CC2)cc1	-3	-5	0	0.3	5811	-20	0
COc1ccc(NC(=O)N2CCCC(c3ccccc3)C2)cc1 (stereo unspecified)	-7	3	-1	0.6	3996	-24	4
CCOc1cc2c(cc1/C=C/c1noc(C)c1[N+](=O)[O-])OC(C)C2 (stereo unspecified)	x	x	x	x	11411	-4	-2
O=C(O)C1C2C=CC(O2)C1C(=O)NCc1ccc2c(c1)OCO2 (stereo unspecified)	12	10	1	4.7	8176	-10	-5
COc1cccc2c1O/C(=N\O)C(C(=O)Nc1ccc(C)cc1)C2 (stereo unspecified)	x	x	x	x	3496	-53	22
CC1CCCN(C(=O)c2ccc3ncsc3c2)C1 (stereo unspecified)	4	1	-4	-2.5	x	-8	x
Cc1ccc(C)c(C2=NNC(=NCc3ccccc3)SC2)c1	14	5	1	-2.4	4466	-4	8
CCN1CCN(C(=O)c2cccc(OC3CCN(S(C)(=O)=O)CC3)c2)[C@@H](C)C1=O	8	8	0	2.2	6723	-16	-10
COc1ccc(CC(=O)NN=Cc2c(C)n(C)c3ccccc23)cc1OC	-1	-4	10	0.8	x	x	x
O=C(O)Cc1ccc(S(=O)(=O)N2CCCC2)s1	4	2	3	2.7	2872	-2	x
CCn1c(-c2c[nH]c3ccccc23)n[nH]c1=S	15	8	-2	5.7	12082	-8	-10
CCN1/C(=C/C=C2/SC(=Nc3cccc4ncccc34)N(C)C2=O)Sc2ccccc21	-3	-1	-5	7.9	4933	-21	x
CCCC(C)NC(=O)COC(=O)c1ccccc1SCC(=O)NC(C)CCC (stereo unspecified)	-1	3	9	3.0	3981	-27	-16
O=C(N/N=C/c1cccc(OC(=O)c2ccc3c(c2)OCO3)c1)c1cncc(Br)c1	x	x	x	x	1976	-21	2
NCCCCCC(=O)NN=Cc1ccc2nccnc2c1	-4	8	7	2.1	x	x	x
CCn1c2ccccc2c2cc(/C=N/NC(=O)c3cccc(C)c3)ccc21	x	x	x	x	3581	-26	-4
Remaining list, next part.
SMILES	Mtb hypoxia rep	Mtb hypoxia rep growth	ugtP null kill	RN4220 kill	Autofluor counter	PrP UTR inh	BJeLR viability
Cc1ccccc1N=C1NC(=O)/C(=C/c2cccn2-c2cccc(C(=O)O)c2)S1	-3	-13	2	1.9	x	-29	2
COc1ccccc1C1C(C(=O)NCc2ccccc2)=C(C)Nc2ncnn21 (stereo unspecified)	6	5	-4	9.2	5946	-33	4
O=[N+]([O-])c1cc(C(F)(F)F)cc([N+](=O)[O-])c1NCCNC(=S)Nc1ccc(Cl)c(Cl)c1	5	11	100*	99*	3626	-18	17
COc1ccc2cc(C)c3nnc(SCC(=O)Nc4nc(-c5ccc(F)cc5)cs4)n3c2c1	3	2	1	15	2122	-36	5
COc1ccc(-c2ccc(C=NNC(=O)Cc3nnc(N)s3)o2)cc1Cl	10	4	-7	2.3	x	x	x
COC(=O)[C@H](c1ccccc1Cl)N1CCc2sccc2C1	x	x	x	x	6135	-2	-17
COc1ccc(S(=O)(=O)N2CCSCC2)cc1C(N)=O	-4	0	4	1.9	3965	1	-1
COc1ccc(S(=O)(=O)N2CCN(Cc3ccc4c(c3)OCO4)CC2)cc1	x	x	x	x	5095	-2	-6
Cc1ccc(S(=O)(=O)N2CCCC2=O)c(C)c1N(C)S(C)(=O)=O	18	8	16	7.5	4268	-23	-7
Cc1ccc(NC(=O)CSCC(=O)N=c2sccn2C)cc1	-2	-1	3	2.7	6834	-10	-2
CCOc1cccc(NC(=O)CSc2sc3c(O)cc(=O)[nH]c3c2C#N)c1	6	1	12	-1.0	4234	1	-10
Cc1ccc(C(C)(C)C)c(SCC(=O)Nc2nnc(C)s2)c1	4	-1	1	1.5	2945	-17	-10
COC(=O)c1ccc(Cl)c(-c2ccc(/C=N/NC(=O)Nc3ccccc3)o2)c1	x	x	x	x	2656	-2	1
N/C(=N\OC(=O)Cc1cccs1)c1cccc([N+](=O)[O-])c1	x	x	x	x	2132	-82	-1
CC(=O)Nc1ccc(-c2cc(-c3ccc(NC(C)=O)cc3)nc(-c3ccc(NC(C)=O)cc3)n2)cc1	5	0	1	3.3	8588	7	-10
CN1CCN(S(=O)(=O)c2cc([N+](=O)[O-])ccc2N2CCCCCC2)CC1	6	5	-5	6.3	4790	-20	-9
COC(=O)c1[nH]c2cccc(OC)c2c1NC(=O)CN1CC(C)OC(C)C1 (stereo unspecified)	5	9	-3	5.6	5541	-7	13
COc1cc(/C=C/c2ccc3cccc(O)c3n2)ccc1O	3	1	-12	-6.5	3785	-105	4
Cc1ccc(C)c(N2CCN(C3CCCCC3NS(=O)(=O)c3ccccc3)CC2)c1 (stereo unspecified)	5	-6	15	2.5	4745	-15	-8
O=C(Nc1ccccc1F)N1CCC(NC(=O)C23CC4CC(CC(C4)C2)C3)CC1	1	0	-4	-1.9	6132	-10	0
NS(=O)(=O)c1ccc(NC(=O)CSc2nc3ccccc3nc2N2CCOCC2)cc1	9	4	4	-7.1	5994	-3	1
NS(=O)(=O)c1cccc(NC(=O)c2ccno2)c1	-2	-4	4	1.0	3972	-21	9
O=C1NC(=Nc2ccccc2)SC1=Cc1cccs1	5	1	-25	2.6	x	x	x
COC(=O)c1ccc(NC(=S)NC2CCc3ccccc32)cc1 (stereo unspecified)	4	13	-9	1.0	2391	-18	13
Fc1ccccc1Nc1nc(Cl)nc(Cl)n1	4	13	6	1.8	3747	-30	-10

Full records, looked up by structure.
CN1CCN(S(=O)(=O)c2cc([N+](=O)[O-])ccc2N2CCCCCC2)CC1 as listed: Mtb hypoxia rep = 6; Mtb hypoxia rep growth = 5; ugtP null kill = -5; RN4220 kill = 6.3; Autofluor counter = 4790; PrP UTR inh = -20; BJeLR viability = -9
Fc1ccccc1Nc1nc(Cl)nc(Cl)n1 as listed: Mtb hypoxia rep = 4; Mtb hypoxia rep growth = 13; ugtP null kill = 6; RN4220 kill = 1.8; Autofluor counter = 3747; PrP UTR inh = -30; BJeLR viability = -10

Continued.
SMILES	Mtb hypoxia rep	Mtb hypoxia rep growth	ugtP null kill	RN4220 kill	Autofluor counter	PrP UTR inh	BJeLR viability
O=c1c(Cl)c(Cl)cnn1Cc1nnc(-c2ccccc2Br)o1	24	17	-4	41	2290	-28	-2
CCS(=O)(=O)c1ccc2c(c1)N(S(C)(=O)=O)CC(C(=O)NC1CC1)O2 (stereo unspecified)	3	6	4	3.4	3795	-17	-12
S=C1N(c2ccccc2)CN(CCN2CCOCC2)CN1c1ccccc1	-4	9	1	-0.4	3653	x	-5
CN1C(=O)/C(=C/c2cc3c(cc2Br)OCO3)NC1=S	0	5	5	5.3	4369	-6	5
CC(=O)c1c(C)[nH]c(C(=O)Nc2cccc3ccccc23)c1C	9	12	0	4.2	4445	-18	2
CN(C)C(=O)CCc1ccc2c3c([nH]c2c1)[C@]1(C)[C@@H](C(=O)N2CCOCC2)C[C@H](CC(=O)NCCN2CCOCC2)C(=O)N1CC3	4	4	1	-1.6	3535	-14	x
O=[N+]([O-])c1cc(S(=O)(=O)C(F)(F)F)ccc1N1CCN(c2ccccc2)CC1	1	-4	-6	-1.7	2097	-19	-7
CCC(NC(=O)CCc1c(C)c2cc3c(-c4ccccc4)coc3cc2oc1=O)C(=O)O (stereo unspecified)	3	-1	-27	5.8	3659	-21	3
Cc1ccc(NC(=O)[C@@H]2CCCN2C(=O)[C@@H]2Cc3ccccc3CN2)c(C)c1	15	5	2	-0.9	5926	-2	7
C[C@H](NC(=O)c1nc[nH]c1C(=O)N[C@@H](CCCCN)C(=O)OC(C)(C)C)C(=O)OC(C)(C)C	x	x	x	x	3799	-16	2
CCCN(CCC)C(=O)c1c(C)[nH]c(C(=O)OCC)c1C	x	x	2	2.6	6166	x	-4
CCOc1ccc(OCc2ccc(C(=O)N/N=C(\C)c3ccccn3)cc2)cc1	x	x	x	x	4639	-10	41
Cc1ccc2oc(-c3cccc(NC(=O)C4CCCO4)c3)nc2c1 (stereo unspecified)	1	0	-15	7.5	7411	-51	4
C/C(=C(\C#N)C(=O)NC1CCCCC1)N(C)C	10	-3	0	-13	2421	-12	x
O=C(NN=Cc1cc([N+](=O)[O-])ccc1N1CCCCCC1)c1ccccn1	4	-1	23	48	x	x	x
Cc1nc(SCc2ccc(Br)cc2)[nH]c(=O)c1C	x	x	-1	0.7	4007	-9	x
CC1(C)OC(=O)C(=CNNc2c(Cl)cc(Cl)cc2Cl)C(=O)O1	-4	2	6	4.6	6391	-10	2
Clc1nnc2ccc(-c3ccccc3)nn12	8	7	6	4.2	u	-2	-3
Cc1ccn2c(=O)c(C(=O)NC3CCCCC3C)c(O)nc2c1 (stereo unspecified)	6	0	4	-0.8	4711	2	0
O=C(OCCN1C(=O)c2cccc3c(N4CCOCC4)ccc(c23)C1=O)c1ccc(Cl)cc1	-2	7	-15	-0.6	3644	-53	36
COc1ccc(C2CC(=O)C=C(c3ccc(OC(F)(F)F)cc3)C2)cc1OC (stereo unspecified)	-8	1	7	9.1	x	x	x
CCOC(=O)C1=C(COC(=O)c2cccnc2Cl)NC(=O)NC1C (stereo unspecified)	4	5	8	5.5	5590	-23	-1
Cc1ccsc1/C=N/NS(=O)(=O)c1ccc([N+](=O)[O-])cc1	x	x	x	x	2443	-27	4
NC(=O)c1cc([N+](=O)[O-])ccc1N1CCCCC1	6	3	7	4.4	2247	-11	-5
COC(=O)c1sc2ccccc2c1NC(=O)c1ccc(S(=O)(=O)N2CCCCC2)cc1	4	7	-7	11	2184	-39	-3
Going on with the list:
SMILES	Mtb hypoxia rep	Mtb hypoxia rep growth	ugtP null kill	RN4220 kill	Autofluor counter	PrP UTR inh	BJeLR viability
CCCCC(=O)Nc1ccc(S(=O)(=O)Nc2nccc(C)n2)cc1	5	11	9	4.2	4409	-28	3
CC1CCCCN1C(=O)COC(=O)C1CCN(S(=O)(=O)c2ccc(Cl)c(C(F)(F)F)c2)CC1 (stereo unspecified)	3	1	1	0.0	u	0	1
CCCCNC(=O)CN(Cc1ccco1)S(=O)(=O)c1ccc(C(C)=O)cc1	-6	-3	-2	-1.7	5820	-21	x
CCCOc1ccc(/C=N/NC(=O)c2ccc(Cn3cc([N+](=O)[O-])cn3)o2)cc1	x	x	x	x	2918	-32	2
CCCCC(=O)NC(c1cccc([N+](=O)[O-])c1)c1c(OC(C)=O)ccc2ccccc12 (stereo unspecified)	9	-2	0	-8.5	2835	-31	-1
CC(=O)c1c(C)oc2ccc(N(C(C)=O)S(=O)(=O)c3cccc([N+](=O)[O-])c3)cc12	3	9	-1	3.8	2219	3	x
N#Cc1nc(COc2ccc(Br)cc2)oc1N1CCN(Cc2ccccc2)CC1	x	x	0	-0.1	3578	-9	x
NC(=O)c1c(N=Cc2cccs2)sc2c1CCCC2	-4	2	-10	-2.9	x	x	x
Cc1ccc2[nH]c(=O)c(CN(CCO)C(=O)NCc3ccccc3)cc2c1	-8	7	3	14	3101	-18	1
CCCCCOc1ccc(CSC2=NCCN2)cc1[N+](=O)[O-]	24	15	3	-0.8	2204	-34	6
CCc1nc(SCc2ccccn2)c2c(=O)n(C)c(=O)n(C)c2n1	-6	1	9	4.9	5425	-19	5
O=C(/C=C/c1ccc2c(c1)OCO2)c1c(O)n(CCC2=CCCCC2)c(=O)[nH]c1=O	1	3	100*	100*	2689	-8	x
O=C(CC1NC(=O)NC1=O)Nc1cccc2ccccc12 (stereo unspecified)	7	6	4	2.0	12560	x	-6

Screening data (PubChem)
